Screening results from PubChem BioAssay.
Polio RdRp inh: inhibitors of poliovirus RNA polymerase binding and polymerization; poliovirus polymerase elongation, fluorescence polarization; active compounds read low; 150,000 compounds, 0.66% hits; P03300; AID 588519; % elongation, % (compound at 16.7 µg/mL); in the data active means % elongation below about 90%; further: some results filed as inactive read as strong as hits
Target sequence (P03300 1749-2209 limits assumed): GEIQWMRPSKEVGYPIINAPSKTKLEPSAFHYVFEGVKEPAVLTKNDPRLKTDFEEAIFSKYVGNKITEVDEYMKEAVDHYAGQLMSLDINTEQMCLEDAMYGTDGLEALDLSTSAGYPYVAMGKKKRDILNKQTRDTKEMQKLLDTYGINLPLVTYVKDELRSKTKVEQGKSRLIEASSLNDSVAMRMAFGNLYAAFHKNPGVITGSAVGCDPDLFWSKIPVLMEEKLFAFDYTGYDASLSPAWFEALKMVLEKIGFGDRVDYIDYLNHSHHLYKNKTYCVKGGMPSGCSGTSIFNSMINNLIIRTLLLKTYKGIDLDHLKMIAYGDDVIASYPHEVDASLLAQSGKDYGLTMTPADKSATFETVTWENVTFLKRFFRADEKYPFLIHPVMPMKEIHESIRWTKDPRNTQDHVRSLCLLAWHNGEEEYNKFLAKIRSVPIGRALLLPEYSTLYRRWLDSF
Polio RdRp inh intensity: second read-out of Polio RdRp inh, no call of its own (marks repeat the call); % elongation; measured here: total intensity read-out; formula for this scale not given here;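 total fluorescence in place of polarization; lower means less elongation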
* = called active by the depositor. Not all compounds are listed, so the mix of outcomes need not match the whole.

mol	Polio RdRp inh	Polio RdRp inh intensity
CCN(CC)CCNC(=O)c1cc2c(=O)n(C)c3cc(Cl)ccc3c2s1	97	98
O=C(Nc1cccc(Cl)c1Cl)c1ccc2c(c1)N(Cc1cccc(Cl)c1)C(=O)c1ccccc1S2=O (stereo unspecified)	109	105
O=C1CCSC2(C(=O)N(Cc3ccccc3)c3ccccc32)N1c1ccccc1 (stereo unspecified)	100	96
CC1(c2ccccc2)CC(C)(C)N(C(=O)c2cccc(Cl)c2)c2ccccc21 (stereo unspecified)	103	104
Cc1ccc(C(=O)N2CCn3c4c(c5cc(C)ccc53)CCCC42)cc1 (stereo unspecified)	104	105
CCOc1ccc(CCNC(=O)CN2CCN(Cc3ccc(F)cc3Cl)C2=O)cc1OCC	116	118
CCOC(=O)CCc1c(C)nc2c(c(C)nn2-c2ccc(C)cc2)c1C	106	102
CSc1ccc(CNCc2c(C(=O)O)c(C)n(Cc3ccc(F)cc3Cl)c2C)cc1	106	106
O=C(c1cc(-c2ccc(Br)cc2)n[nH]1)N1CCN(S(=O)(=O)c2ccc(Br)cc2)CC1	109	112
Cc1ccc(CNC(=O)c2cccc(NC(=O)N3CCSc4ncccc43)c2)cc1	99	105
Cc1cc(C)cc(NS(=O)(=O)c2c(C)nc3scc(C)n3c2=O)c1	100	103
COc1cc(CN(C(=O)c2ccc(OC(C)C)cc2)c2ccccn2)cc(OC)c1OC	109	102
CCc1nn(-c2ccccc2)c2nc(-c3ccc(O)cc3)c3cc(OC)c(OC)cc3c12	110	110
Cn1cc(-c2cc3n(n2)CCC(=O)N3CCCC(=O)NCc2ccccc2Cl)c2ccccc21	105	104
CCCc1nn2c(=O)cc(COC(=O)CNC(=O)COc3ccc(C)cc3)nc2s1	107	113
Cc1ccc(C(=O)Nc2cccc(-c3nc4ccccc4o3)c2)c(Cl)c1	107	107
CCOC(=O)c1cc(-c2ccc(C)cc2)n(CCC(=O)Nc2ccc(OC)c(OC)c2)c1C	102	112
Cc1ccc(CNc2cc(C)nc3nc(-c4cccc(C)c4)nn23)cc1	116	130
CCOC(=O)c1c(C)[nH]c(C)c1S(=O)(=O)N(C)CC(=O)NCc1cccc(Br)c1	104	109
Cc1nnc(N2CCC(C(=O)NCCc3ccccc3)CC2)c2nn(-c3ccccc3)c(C)c12	100	108
O=C(c1ccc(F)cc1)c1cn(Cc2ccccc2F)c2cc3c(cc2c1=O)OCCO3	109	111
CCOCCCNC(=O)c1cc(Sc2cccc(Cl)c2)nc2ccccc12	111	108
CCOC(=O)c1ccc(NC(=O)CSc2nnc(-c3ccncc3)n2-c2ccccc2)cc1	104	112
CCN(CC)CCCNc1oc(-c2ccc(OC)cc2)nc1C#N	101	100
CCc1ccc(NS(=O)(=O)c2ccc3[nH]cc(C(=O)NCCCOC(C)C)c(=O)c3c2)cc1	110	110
COc1ccc2c(CNC3CCC(C)CC3)c(C(=O)O)n(Cc3ccc(F)cc3)c2c1 (stereo unspecified)	108	106
CN1C(=O)c2ccccc2Sc2ccc(NC(=O)N3CCN(c4ccc(F)cc4)CC3)cc21	105	107
Cc1cccc(NC(=O)Cn2c(=O)n(CCc3ccccc3)c(=O)c3sc4ccccc4c32)c1	101	96
O=C(CSc1nc(-c2ccccc2F)nc2cc(=O)[nH]n12)Nc1cccc(C(F)(F)F)c1	101	106
O=C(O)c1ccc(NC(=O)c2cc3ccccc3o2)cc1	103	105

Complete entries from above. Order of screens: Polio RdRp inh	Polio RdRp inh intensity
Entry for `CCOC(=O)c1c(C)[nH]c(C)c1S(=O)(=O)N(C)CC(=O)NCc1cccc(Br)c1` : 104	109
Entry for `COc1cc(CN(C(=O)c2ccc(OC(C)C)cc2)c2ccccn2)cc(OC)c1OC` : 109	102

(more compounds)
mol	Polio RdRp inh	Polio RdRp inh intensity
CN1C(=O)c2ccccc2Sc2ccc(NC(=O)COc3ccccc3)cc21	111	109
CCCNS(=O)(=O)c1cc(-c2nn3c(C)nnc3c3ccccc23)ccc1C	103	102
Cc1ccc(-n2nc(C(=O)N3CCN(c4ccccc4F)CC3)c3c4ccccc4n(C)c3c2=O)cc1	109	108
Cc1cccc(OCC(=O)Nc2cccc(OCc3cc(=O)n4cccc(C)c4n3)c2)c1	106	103
Cc1cc(C)cc(N2C(=O)CS(=O)(=O)C23C(=O)N(Cc2ccccc2)c2ccccc23)c1 (stereo unspecified)	101	106
Cc1ccc2cccc(NC(=O)c3cccc4ccccc34)c2n1	105	111
CCC1CCc2nc3sc(C(=O)Nc4ccc(C)cc4)c(N)c3cc2C1 (stereo unspecified)	114	111
COc1ccccc1N1CCN(C(=O)CN2C(=O)COc3ccc(S(=O)(=O)N4CCCC4)cc32)CC1	111	111
CCN(CC)S(=O)(=O)c1ccc2c(c1)N(CC(=O)Nc1ccc(F)cc1)C(=O)CO2	107	109
CCN(CC)c1nn2c(=O)c(C(=O)NCCc3cccc(C)c3)cnc2s1	97	110
Cc1ccc2nc(N(Cc3cccnc3)C(=O)c3ccc4c(c3)OCCO4)sc2c1	103	110
CCCCNS(=O)(=O)c1ccc2nc(-c3cccnc3)cc(C(=O)NCCCOCC)c2c1	108	113
Cc1ccc(-c2nc(CCNC(=O)C(=O)Nc3ccc(C)c(Cl)c3)cs2)cc1	108	114
CC(=O)Nc1ccc(S(=O)(=O)N2CCC(c3nnc(-c4ccc(C)cc4)o3)CC2)cc1	105	109
CCC1CN(C(=O)N2CCC(C(=O)NCCCc3ccccc3)CC2)c2cc(C)ccc2O1 (stereo unspecified)	103	104
CCOC(=O)c1c(NC(=O)COc2ccc(CC)cc2)sc2c1CCCC2	107	107
COc1ccc(N2CCN(S(=O)(=O)CCNC(=O)c3ccc(C(F)(F)F)cc3)CC2)cc1	105	99
Cc1cccc(C(=O)NCCc2nc3ccccc3n2CCC(C)C)c1	112	94
COc1ccc(-n2c(=O)c3ccc(C(=O)NCc4ccc(C)cc4)cc3n(CC(=O)Nc3ccc(C)cc3)c2=O)cc1	104	105
Cc1nn(C)c2c1c(C(F)(F)F)cc(=O)n2C(C)C(=O)NCc1ccc(Cl)cc1 (stereo unspecified)	104	111
COc1cccc(CNC(=O)C2CCCCN2S(=O)(=O)c2ccc(F)cc2)c1 (stereo unspecified)	111	111
COc1ccc(OCC(=O)N2CCN(C(=O)c3cccc(OC)c3)CC2)cc1	106	107
Cc1ccc(NC(=O)C(CC(C)C)NS(=O)(=O)c2ccc3c(c2)oc(=O)n3C)c(C)c1 (stereo unspecified)	101	105
Cc1ccc(S(=O)(=O)C(CNC(=O)C(=O)NCc2ccc(Cl)cc2)c2ccco2)cc1 (stereo unspecified)	100	97
Cc1nc2ncnn2c(C)c1CCC(=O)N1CCN(c2ccc(F)cc2)CC1	104	109
O=C(Nc1ccc(C(=O)N2CCN(c3ccccc3)CC2)cc1)c1nsc2ccccc12	107	106
COc1ccc(-c2nnc3c4ccccc4c(-c4ccccc4)nn23)cc1	110	109
CCCNC(=O)c1ccc(Cn2c(SCC(N)=O)nc3ccccc3c2=O)cc1	105	110
CCC(=O)N1CCc2cc(CNC(=O)c3ccccc3C)ccc21	110	108
Cc1cc(C)cc(OCCCn2c(-c3ccc(Cl)cc3)nc3ccccc3c2=O)c1	104	106

Next results follow.
The line under a structure holds: Polio RdRp inh | Polio RdRp inh intensity
- COC(=O)c1ccc(Cl)cc1NC(=O)N1CC2CCCN2c2ccccc21 (stereo unspecified)
  104 | 108
- COc1ccc(NC(=O)c2cc(CN3CCCC3)on2)cc1Cl
  102 | 105
- COc1ccc(N2CC(NC(=O)COc3ccccc3)CC2=O)cc1OC (stereo unspecified)
  113 | 110
- COc1ccc(NS(=O)(=O)c2cc3c(cc2C)NC(=O)CO3)c(OC)c1
  113 | 112
- COc1ccc(C(=O)COC(=O)c2cc(-c3ccccc3)nc3c(C)cccc23)cc1
  105 | 110
- CC(=O)N(Cc1cccnc1)c1nc2ccc(F)cc2s1
  111 | 109
- CCOC(=O)c1cnc2c(ccc3ccccc32)c1Nc1ccc(OC)c(OC)c1
  104 | 107
- Cc1ccc(C(=O)Nc2ccc(F)cc2)cc1S(=O)(=O)N1CCOCC1
  104 | 107
- COc1ccc(-n2ccn(CC(=O)NCCc3ccccc3)c(=O)c2=O)cc1OC
  111 | 103
- CCOc1ccc(CCNC(=O)c2cc(Nc3ccc(C)cc3C)nc3ccccc23)cc1OCC
  110 | 101
- COc1ccc2c(c1)cc1c(=O)n(CC(=O)NC3CC3)nc(C)n12
  104 | 107
- Cc1ccc(-n2c(=O)c3c4c(sc3n(Cc3cc(=O)n5cc(Cl)ccc5n3)c2=O)CCC4)cc1C
  104 | 102
- COc1ccc(Nc2ncc(C(=O)Nc3cccc(OC)c3)c3ccccc23)cc1
  108 | 106
- CC(C)c1nc2ccc(C(=O)NCc3ccc(F)cc3)cc2o1
  107 | 111
- Cc1nc2ccc(S(=O)(=O)CCC(=O)Nc3ccccc3C)cc2s1
  105 | 105
- O=C(CSc1nccn1Cc1ccc(Cl)cc1)Nc1nc2ccccc2s1
  112 | 105
- COc1cccc2c1Oc1ncccc1N(C(=O)CCC(=O)NCc1ccc(C)cc1)C2
  107 | 112
- Cc1cc(C(F)F)n2nc(C(=O)Nc3ccc(F)c(Cl)c3)nc2n1
  102 | 107
- COc1ccccc1OCC(=O)N(Cc1ccco1)Cc1ccccc1F
  104 | 105
- CCOc1ccc(C2c3[nH]c4ccccc4c3CCN2C(=O)CSc2ccccc2)cc1 (stereo unspecified)
  107 | 99
- O=S(=O)(c1ccc(Cl)cc1)c1nc(-c2ccccc2F)oc1NCc1ccccc1
  107 | 109
- CCOC(=O)c1cccc(NC(=O)CCCn2nc(C)c3c(C)n(-c4ccccc4)nc3c2=O)c1
  103 | 105
- Cc1cc(S(=O)(=O)Nc2cc3c(cc2N2CCOCC2)n(C)c(=O)c(=O)n3C)ccc1F
  108 | 109
- CC(C)(C)C1CCc2c(sc(NC(=O)c3noc4c3CCCC4)c2C#N)C1 (stereo unspecified)
  90 | 92
- COc1cc(-c2noc(C3CC(=O)N(c4ccc5c(c4)OCCO5)C3)n2)cc(OC)c1OC (stereo unspecified)
  101 | 110
- CNC(=O)c1ccc(NC(=O)c2nsc3ccccc23)cc1
  106 | 105
- COc1cc(NC(=O)c2ccc3c(Cl)c4c(nc3c2)CCC4)cc(OC)c1OC
  104 | 106
- Cc1ccc(-c2ccc(CCC(=O)O)n2-c2cccc(O)c2)cc1
  101 | 107
- CCOc1ccc(NC(=O)CSc2nc3c(c(=O)[nH]2)CCCC3)cc1
  111 | 100
- CCOC(=O)CSc1nc2sc3c(c2c(=O)n1Cc1ccccc1)CC(C)CC3 (stereo unspecified)
  105 | 109
- Cc1cccc(-n2ncc(C(=O)N3CCN(Cc4ccccc4)CC3)c2C2CCN(C(=O)OC(C)(C)C)CC2)c1
  104 | 109
- COc1ccc(OC)c(CNC(=O)c2ccc(C)c(NC(=O)c3nsc4ccccc34)c2)c1
  109 | 114
- O=C(NCc1ccccc1)c1nc(S(=O)(=O)Cc2ccc(F)cc2)ncc1Cl
  101 | 104
- CCN(C(=O)Cn1nnc2sc(-c3ccccc3)cc2c1=O)c1cccc(C)c1
  90 | 96
- O=C(COc1ccccc1)NCCc1csc(-c2cccc(F)c2)n1
  107 | 108
- Cc1ccccc1C(=O)n1nc(-c2ccco2)nc1NCc1cccs1
  109 | 113
- CCOc1ccc2nc(NC(=O)c3nc(SC(C)C)ncc3Cl)sc2c1
  102 | 105
- COc1cccc(OC)c1C(=O)Nc1ccc(S(=O)(=O)Nc2nccc(C)n2)cc1
  108 | 110
- COc1cccc(C(=O)Nc2ccccc2OCc2cc(=O)n3cc(C)ccc3n2)c1
  103 | 106
- COc1ccc(OC)c(CCNc2ncnc3onc(-c4ccc(F)cc4)c23)c1
  104 | 102
- COc1ccc(N2C(=O)CSC23C(=O)N(Cc2cccc(C(F)(F)F)c2)c2ccccc23)cc1 (stereo unspecified)
  101 | 109
- CC(C)CCNC(=O)C1CCC(CNS(=O)(=O)c2cccc3nsnc23)CC1 (stereo unspecified)
  108 | 105
- O=C(Cn1c(-c2cccs2)cc2cc(F)ccc21)NCCCN1CCN(c2ccccc2F)CC1
  107 | 111
- COc1ccc(C(=O)CN2C(=O)N(c3ccc(C(C)=O)cc3)S(=O)(=O)c3ccccc32)cc1
  108 | 115
- COc1cc(OC)c(NC(=O)CCn2cccn2)cc1Cl
  110 | 111
- CCOC(=O)c1c(C)oc2nc(C)nc(NCCCN3CCN(c4ccccc4)CC3)c12
  98 | 105
- CCOC(=O)c1c(NC(=O)c2cc(-c3cccc(Cl)c3)on2)sc(C(C)=O)c1C
  95 | 96
- Cc1cc(C)cc(-n2ccn(CC(=O)c3ccc(F)cc3)c(=O)c2=O)c1
  114 | 105
- Cc1ccc(C)c(N2CCN(C(=O)Nc3cn(CC(C)C)c(=O)c4ccccc34)CC2)c1
  77* | 66*
- Cc1ccc(CCNC(=O)C2CCN(c3nnc(-n4cccc4CNc4ccc(C)cc4)s3)CC2)cc1
  109 | 110

Grouped by structure: those above with a thiophene ring, fused or not.
The line under a structure holds: Polio RdRp inh | Polio RdRp inh intensity
- CCN(CC)CCNC(=O)c1cc2c(=O)n(C)c3cc(Cl)ccc3c2s1
  97 | 98
- Cc1cccc(NC(=O)Cn2c(=O)n(CCc3ccccc3)c(=O)c3sc4ccccc4c32)c1
  101 | 96
- CCC1CCc2nc3sc(C(=O)Nc4ccc(C)cc4)c(N)c3cc2C1 (stereo unspecified)
  114 | 111
- CCOC(=O)c1c(NC(=O)COc2ccc(CC)cc2)sc2c1CCCC2
  107 | 107
- Cc1ccc(-n2c(=O)c3c4c(sc3n(Cc3cc(=O)n5cc(Cl)ccc5n3)c2=O)CCC4)cc1C
  104 | 102
- CC(C)(C)C1CCc2c(sc(NC(=O)c3noc4c3CCCC4)c2C#N)C1 (stereo unspecified)
  90 | 92
- CCOC(=O)CSc1nc2sc3c(c2c(=O)n1Cc1ccccc1)CC(C)CC3 (stereo unspecified)
  105 | 109
- CCN(C(=O)Cn1nnc2sc(-c3ccccc3)cc2c1=O)c1cccc(C)c1
  90 | 96
- Cc1ccccc1C(=O)n1nc(-c2ccco2)nc1NCc1cccs1
  109 | 113
- O=C(Cn1c(-c2cccs2)cc2cc(F)ccc21)NCCCN1CCN(c2ccccc2F)CC1
  107 | 111
- CCOC(=O)c1c(NC(=O)c2cc(-c3cccc(Cl)c3)on2)sc(C(C)=O)c1C
  95 | 96
